Yeast UUG start: modulators of yeast start codon fidelity, primary screen, whole organism, S. cerevisiae, single point, plate reader; S. cerevisiae UUG-firefly luciferase reporter, luminescence/redox ratio; activity score, % at 18.7 µM; 0.13% of 350,000 active;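 active means replicate mean at a twofold rise or more, about +100% in these data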;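 further: firefly luciferase made from a UUG start codon reports start codon fidelity; reporter light over untreated wells divided by growth signal over untreated wells; some hits fall short of that in this replicate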
MT1-MMP act inh: blockers of MT1-MMP proenzyme processing, primary screen, HT1080 RFP-PRO-GFP cells, GFP/RFP fluorescence; Matrix metalloproteinase-14 (Homo sapiens), P50281; 0.061% of 360,000 active; GFP/RFP ratio fluorescence, overnight; percent of plate control window, DMSO zero; GFP/RFP ratio change, % at 20 µM;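 active means GFP/RFP ratio change of at least 30% with cell ATP level not reduced by more than half and red fluorescence within 50% of control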; further: strong numbers were not always called active
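Assay system: HT1080 RFP-PRO-GFP cells. Benchmarks: DMSO vehicle wells and RFP-L50D-GFP reporter cell wells. Times: overnight cell settling, then overnight compound exposure, 37 °C, 5% CO2. Compound: 20 µM single dose, 1% DMSO. Read-out basis: GFP/RFP fluorescence ratio.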
Rce1 inhib: yeast Rce1p protease inhibitors, primary screen, biochemical, fluorescence, cell-free homogeneous. yeast membranes, quenched prenylated peptide cleavage fluorescence. calls only. AID 2563, 2010. CAAX prenyl protease 2 (Saccharomyces cerevisiae (strain ATCC 204508 / S288c)), Q03530. 0.27% of 290,000 active;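 active means fall in fluorescence gain of 50% or more versus controls, with final raw signal at or below 3038400; inconclusive means same 50% fall but final raw signal above 3038400; inactive means fall in fluorescence gain under 50%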;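 further: plate controls were neutral control wells for no effect and wells lacking membranes for full effect; tested at 10 µM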
eIF4H inh: human eIF4H binding inhibitors, primary screen, translation initiation inhibitor project, biochemical, uHTS, fluorescence polarization; Eukaryotic translation initiation factor 4H (Homo sapiens), Q15056; eIF4H fluorescence polarization binding assay; inhibition, % at 35 µM; 0.94% of 290,000 active; AID 2012, 2009;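 active means 50% or more with normal probe brightness, or confirmed in later tests; inconclusive means above 50% with abnormal brightness, or retests that disagree; inactive means below 50% or failed in later tests; about a fifth of its hits are not listed in these tables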;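 further: calls also rest on retests at 20 µM and on dose response follow-up; 0% = protein and probe with vehicle and 100% = probe without protein; strong numbers were not always called active; many hits fall short of the cut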
PABP polyA inh: PABP poly(A) RNA binding inhibitors, primary screen, biochemical, fluorescence polarization, uHTS. inhibition, % at 35 µM. 1% of 290,000 active;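 active means 50% or more with normal probe brightness, or confirmed in later tests; inconclusive means above 50% with abnormal brightness, or retests that disagree; inactive means below 50% or failed in later tests; about a fifth of its hits are not listed in these tables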;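 further: calls also rest on retests at 20 µM and on dose response follow-up; controls were probe without protein and protein plus probe with vehicle; some compounds called inactive have numbers as strong as hits; many hits fall short of the cut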
Target sequence (P11940 whole entry, looked up): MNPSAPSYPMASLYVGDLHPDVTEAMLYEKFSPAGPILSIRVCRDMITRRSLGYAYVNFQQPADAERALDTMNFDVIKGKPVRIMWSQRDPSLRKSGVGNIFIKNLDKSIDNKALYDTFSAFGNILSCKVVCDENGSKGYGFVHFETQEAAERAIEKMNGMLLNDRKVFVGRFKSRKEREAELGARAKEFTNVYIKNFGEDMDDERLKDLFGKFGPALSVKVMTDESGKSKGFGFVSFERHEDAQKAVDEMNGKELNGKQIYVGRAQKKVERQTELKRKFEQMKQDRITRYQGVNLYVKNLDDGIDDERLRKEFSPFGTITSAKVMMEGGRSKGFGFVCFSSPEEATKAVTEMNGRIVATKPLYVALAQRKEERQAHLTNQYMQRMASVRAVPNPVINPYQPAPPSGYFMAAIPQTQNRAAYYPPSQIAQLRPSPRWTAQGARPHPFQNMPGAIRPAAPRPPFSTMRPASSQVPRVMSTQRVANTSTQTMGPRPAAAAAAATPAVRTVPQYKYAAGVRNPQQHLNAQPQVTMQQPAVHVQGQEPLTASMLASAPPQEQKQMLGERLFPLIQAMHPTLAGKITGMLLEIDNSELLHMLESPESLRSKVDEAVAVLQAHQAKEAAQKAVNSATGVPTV
CSC inhib: cancer stem cell viability inhibitors, primary screen, luminescence; cancer stem cell-like cells viability; inhibition, % at 7.5 µM; 1.1% of 300,000 active;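 active means mean at 75% or more and at least half the replicates too; inconclusive means mean and replicates disagree; tested in HMLE shEcad cells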;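 further: 0% = median of negative and 100% = median of positive control wells; the first replicate is given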
Env fusion inh: inhibitors of HIV-1 Env-driven cell-cell fusion, primary screen, HeLa-JRFL effector, CEM21 target cells, luciferase; inhibition, % at 12.3 µM; 1.1% of 360,000 active;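 active means mean replicate inhibition score of at least 50 and every replicate individually at or above 50; inconclusive means only one of the two criteria met; inactive means mean below 50 and not all replicates reaching 50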;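 further: 0% = plate neutral controls and 100% = maraviroc near 300 nM; one replicate is shown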
eIF4H inh retest: second read-out of eIF4H inh, no call of its own (marks repeat the call); inhibition, %; compound at 20 µM; confirmation average;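 mean of two retest wells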
PABP polyA inh retest: further read-out of PABP polyA inh, marked with its call; inhibition, %; compound at 20 µM; confirmation repeats;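 mean of two retest wells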
MT1-MMP act inh RFP: also measured in MT1-MMP act inh; calls as there; RFP signal change, %; measured here: RFP expression control read;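 0 = vehicle wells; hits needed this value within 50% of zero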
Active calls of the source: *; i = inactive; u = inconclusive; x = not tested or not shown; & = joins results of further samples.

SMILES	Yeast UUG start	MT1-MMP act inh	MT1-MMP act inh RFP	Rce1 inhib	eIF4H inh	PABP polyA inh	CSC inhib	Env fusion inh	others
O=C(CN1C(=O)COc2ccccc21)N1CCCC1	-12	1	1	i	1	5	-8	3
COc1cc(S(=O)(=O)N2CCN(Cc3ccc4c(c3)OCO4)CC2)c(C)cc1C	-15	-2	-5	i	3	26	40	10
CCCOc1ccc(C2C(=O)N(C3CCCCC3)CC(=O)N2C2CC2)cc1OC (centres undefined)	x	2	1	i	2	-10	-6	x
O=C(Nc1cccc(S(=O)(=O)C(F)F)c1)c1ccc(S(=O)(=O)N2CCCCC2)cc1	14	0	-12	i	4	-2	-1	-3
CC/S(C)=N/S(=O)(=O)c1ccc(C)cc1 (centres undefined)	-5	-7	-3	i	7	-6	x	x
Cn1ccnc1-c1ccc(-c2nccn2C)cc1	-15	0	3	x	6	-6	-8	8
O=C(/C=C/c1cccc(Br)c1)N1CCN(c2cccc(C(F)(F)F)c2)CC1	-16	5	7	i	2	-3	32	x
CCC(CC)NC(=O)Nc1ccc(F)c(Cl)c1	x	4	-5	i	-1	9	-2	9
Cc1ccc(CNC(=O)C2CCC(CNc3c(N4CCC(C)CC4)c(=O)c3=O)CC2)cc1 (centres undefined)	-4	4	3	i	-10	6	-11	17
CCN(CCCNC(=O)CCn1c(=S)[nH]c2cc3c(cc2c1=O)OCO3)c1cccc(C)c1	-3	-3	-6	i	-3	-15	-10	4
CCCC(=O)Nc1nc2c(C)c(Cl)ccc2s1	x	-3	-14	i	2	5	7	-2
COc1ccccc1NC(=O)CSc1nnc(C2CCCCC2)n1N	-4	0	2	i	9	7	-10	2
CCn1cc(-c2cc(C(=O)O)c3ccccc3n2)cn1	x	-1	1	x	20	3	-7	-3
Cc1ccc(F)cc1NC(=O)CN1CCN(c2ccccn2)CC1	x	1	1	i	-16	34	2	5
CCOC(=O)N1CCN(C(=O)CN(c2ccc3c(c2)OCO3)S(C)(=O)=O)CC1	11	6	3	i	12	10	-4	x
O=C1CCN(CCc2ccccc2)CCN1CCSc1ccc(Br)cc1	-5	5	2	i	-6	-6	8	-14
O=C(Nc1ccccc1)Nc1nc(-c2ccc(F)cc2)cs1	x	-4	-7	i	-2	-4	-12	2
COc1ccc(NC(=O)CS(=O)(=O)c2cn(CC(=O)N3CCCC3)c3ccccc23)c(OC)c1	13	3	5	i	-4	6	-11	-6
Cc1ccc(NC(=S)N(CCN(C)C)Cc2cccs2)cc1C	x	4	6	i	0	3	x	-3
CC1CCN(c2c(NCC3CCC(C(=O)NCCC4=CCCCC4)CC3)c(=O)c2=O)CC1 (centres undefined)	x	4	0	i	-7	-7	13	11
COc1ccc(C(=O)C2CCCN(C(=O)COc3ccc(C(C)=O)cc3)C2)cc1F (centres undefined)	x	5	-3	i	4	-2	3	1
Clc1ccc2nc(-c3ccccc3)cn2c1	-55	-1	-1	i	-6	-10	9	-84
Cc1cccc(NS(=O)(=O)c2ccc3c(c2)CCC(=O)N3)c1	-1&-4	5&2	1&-1	i	-3	-4	3	-36&3
O=C(NC1CCN(C(=O)Nc2cccc(Cl)c2)CC1)c1ccco1	-3	-4	-5	x	2	-3	-5	0
CCOc1ccc2nc(COC(=O)c3cccs3)c(C(=O)c3ccccc3)[n+]([O-])c2c1	x	-2	0	i	6	11	-17	3

Reprinted from the results shown (13 entries):
SMILES	Yeast UUG start	MT1-MMP act inh	MT1-MMP act inh RFP	Rce1 inhib	eIF4H inh	PABP polyA inh	CSC inhib	Env fusion inh	others
COc1cc(S(=O)(=O)N2CCN(Cc3ccc4c(c3)OCO4)CC2)c(C)cc1C	-15	-2	-5	i	3	26	40	10
CCCOc1ccc(C2C(=O)N(C3CCCCC3)CC(=O)N2C2CC2)cc1OC (centres undefined)	x	2	1	i	2	-10	-6	x
O=C(Nc1cccc(S(=O)(=O)C(F)F)c1)c1ccc(S(=O)(=O)N2CCCCC2)cc1	14	0	-12	i	4	-2	-1	-3
CC/S(C)=N/S(=O)(=O)c1ccc(C)cc1 (centres undefined)	-5	-7	-3	i	7	-6	x	x
Cn1ccnc1-c1ccc(-c2nccn2C)cc1	-15	0	3	x	6	-6	-8	8
O=C(/C=C/c1cccc(Br)c1)N1CCN(c2cccc(C(F)(F)F)c2)CC1	-16	5	7	i	2	-3	32	x
CCC(CC)NC(=O)Nc1ccc(F)c(Cl)c1	x	4	-5	i	-1	9	-2	9
Cc1ccc(CNC(=O)C2CCC(CNc3c(N4CCC(C)CC4)c(=O)c3=O)CC2)cc1 (centres undefined)	-4	4	3	i	-10	6	-11	17
CCN(CCCNC(=O)CCn1c(=S)[nH]c2cc3c(cc2c1=O)OCO3)c1cccc(C)c1	-3	-3	-6	i	-3	-15	-10	4
CCCC(=O)Nc1nc2c(C)c(Cl)ccc2s1	x	-3	-14	i	2	5	7	-2
COc1ccccc1NC(=O)CSc1nnc(C2CCCCC2)n1N	-4	0	2	i	9	7	-10	2
CCn1cc(-c2cc(C(=O)O)c3ccccc3n2)cn1	x	-1	1	x	20	3	-7	-3
Cc1ccc(F)cc1NC(=O)CN1CCN(c2ccccn2)CC1	x	1	1	i	-16	34	2	5

(further entries)
SMILES	Yeast UUG start	MT1-MMP act inh	MT1-MMP act inh RFP	Rce1 inhib	eIF4H inh	PABP polyA inh	CSC inhib	Env fusion inh	others
CC(=O)c1ccc(NC(=O)CSc2nc(C3CC3)nc3ccccc23)cc1	0	-5	-7	i	10	9	16	10
COc1c(C)cc(C(=O)C2CCCN(C(=O)CCCn3cncn3)C2)cc1C (centres undefined)	-27	8	2	i	-5	11	2	8
CCOC(=O)c1cc(Cl)c2c(ccc3ccccc32)n1	-1	6	2	x	x	x	x	-1
COc1ccc(N(CC(=O)N2CCN(c3ccccc3F)CC2)S(=O)(=O)c2c(C)noc2C)cc1	-7	-1	-3	i	-7	-13	-9	2
N#C/C(=C(/O)c1ccco1)c1nc2ccccc2s1	-9	-1&-1	1&-19	i	7&-6	8&7	12&9	-15&-146
CC(C)CCNC(=O)CNC(=S)N(Cc1ccccc1)Cc1cccnc1	-17	-8	0	i	10	4	12	17
COC(=O)c1[nH]c2cc(OC)ccc2c1NC(=O)CCN1CCCC(C)(C)C1	x	-1	-2	i	4	-4	-4	-69
O=C(Oc1ccc(Br)cc1)c1cncc(Br)c1	7	2	5	i	-1	-2	-10	x
O=C(Nc1ccc2nc3n(c(=O)c2c1)CCCC3)c1ccccc1[N+](=O)[O-]	x	3	4	i	2	0	-12	-14
O=C(COc1ccccc1)Nc1c2c(nn1-c1ccccc1)CS(=O)C2 (centres undefined)	-18	0	4	i	-9	-15	3	-8
CCOC(=O)C1(Cc2cccc(Cl)c2)CCCN(C(=O)c2cc(CC)on2)C1 (centres undefined)	3	1	4	i	-6	7	6	-10
CC(NC(=O)c1cc([N+](=O)[O-])cc([N+](=O)[O-])c1)C1CC2CCC1C2 (centres undefined)	-11	2	-7	i	6	1	-2	-1
Cc1nc([N+](=O)[O-])c(C(=O)OCc2ccccc2)n1C	-16	6	5	i	-4	6	x	10
Fc1ccccc1CN1CCC(Cc2ccccc2)CC1	-4	1	2	i	-1	24	24	-1
CCC1CCCCN1CCN1C(=O)C2C(C(=O)Nc3cccc(OC)c3)C3C=CC2(O3)C1C(=O)NC1CCCCC1 (centres undefined)	-1	2	1	x	-12	6	-13	-2
CCN1CC(CN(C)Cc2nc(-c3ccc(C(F)(F)F)cc3)oc2C)CC1=O (centres undefined)	x	-3	-3	i	-2	-2	-10	31
CCCCc1nc(N2CCN(C(=O)c3ccco3)CC2)c(C#N)c2c1CCCC2	-15	-8	-14	i	-8	6	119*	20
CCOC(=O)N1CCN(C/C(Cl)=C/c2ccccc2)CC1	-8	-1	5	i	16	14	-10	-8
O=C(CCC(=O)Nc1cccc(C(F)(F)F)c1)NCC1CCCO1 (centres undefined)	-14	-3	0	i	-13	2	8	12
CCCSc1nnc(C(C)C)n1N	-16	6	3	i	-4	2	-1	15
Cc1noc(C)c1COc1cccc(C(=O)Nc2cccnc2)c1	x	0	2	i	-1	6	-10	7
COc1ccc(CCNC(=O)c2nnn(-c3cc(C)cc(C)c3)c2N)cc1OC	-7	-2	-5	i	7	2	-3	-9
CCCc1cc(C(=O)O)c2ccccc2n1	-2	5	4	i	7	2	7	x
Nn1cc(-c2ccccc2)nc1SCC(=O)NC1CCS(=O)(=O)C1 (centres undefined)	-13	3	8	i	8	-4	11	u
COCCn1c(SCC(=O)NC(=O)Cc2ccccc2)nc2ccccc2c1=O	-14	-1	-6	x	x	x	-1	x

The results go on.
SMILES	Yeast UUG start	MT1-MMP act inh	MT1-MMP act inh RFP	Rce1 inhib	eIF4H inh	PABP polyA inh	CSC inhib	Env fusion inh	others
Cc1[nH]c2ccccc2c1C(=O)NS(=O)(=O)Nc1ccc(Cl)cc1	x	2	6	i	-3	6	3	11
CSc1nsc(SC)c1NC(=O)OCCc1ccccn1	-12	4	4	i	-11	-10	0	x
COc1ccc(C(=O)N2CC3(CC(c4cccc([N+](=O)[O-])c4)=NO3)C[C@H]2C(=O)NCC(N)=O)cc1 (some centres undefined)	12	4	7	i	14	3	-10	-7
COc1ccc(N2CCN(c3n[nH]c(N)n3)CC2)cc1	x	-1	2	i	-5	-6	-8	-21
CC1=NN(c2ccccc2)C(=O)/C1=C/C=C/c1ccc(N(C)C)cc1	x	55*	0.1*	i	65	10	x	-17	eIF4H inh retest=42;PABP polyA inh retest=21
CCN1C(=O)[C@H]2[C@H]3CN=C(SCc4ccc(C)cc4)N3[C@@](C)(C(=O)OC)[C@H]2C1=O	13	8	6	x	x	x	x	-40
CC(C)CNC(=O)CN1C(=O)NC2(CCc3ccccc32)C1=O (centres undefined)	-4	1	2	i	-9	5	4	13
O=C(CN1C(=O)NC2(CCCCCC2)C1=O)c1ccc(F)cc1	8	-1	0	i	x	x	-5	10
O=C(O)c1cccc(NS(=O)(=O)c2ccc(C3CCCCC3)cc2)c1	-8	1	2	i	4	2	-18	x
O=C(N/N=C/c1c[nH]c2ccccc12)c1cccc(O)c1	-5	1	4	i	-3	6	-7	-7
CC(C)n1c(NCc2ccccc2O)nc2ccccc21	-5	3	-1	i	0	3	-10	-25
CCc1ccccc1N(CC(=O)NCC1CCCO1)C(=O)CCC(=O)Nc1cc(C)on1 (centres undefined)	-1	4	5	i	-2	6	-1	-5
Cc1cccc(N(C(=O)C(F)(F)F)C(C(=O)NC2CCCCC2)c2cccs2)c1 (centres undefined)	-10	1	4	i	-4	13	x	x
Cc1c(NC(=O)COC(=O)C2CC3C=CC2C3)c(=O)n(-c2ccccc2)n1C (centres undefined)	2	0	1	i	-4	7	4	x
CCOC(=O)/C(=C\c1cccnc1)C(=O)c1cc(C(C)=O)c(Nc2ccccc2)s1	6	-12	-34	i	6	1	97*	x

Screening results (PubChem BioAssay)

A portion of the library (hit frequency here may not be typical).
